Screens: PubChem, several laboratories
RN4220 kill – growth inhibition of S. aureus RN4220, primary screen, OD600; inhibition, % (concentration not given with the values); hit rate 0.33% among 330,000; 16 h;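 active means z-score of -3 or lower and OD600 up to 0.18 on both plates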;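 further: plate controls were untreated cells for no effect and reference antibiotic for full effect; stock transfer was 100 nL into about 80 µL; one replicate is shown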
Mtb hypoxia rep – PubChem AID 1159583; M. tuberculosis hypoxia-regulated fluorescent reporter, fluorescence; fluorescence inhibition, % (test concentration not listed); hit rate 0.1% among 300,000;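 active means 35 to 45% if threefold the growth effect, above 45% if 1.5-fold the growth effect; inactive means the rest, general growth blockers included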;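 further: wells of about 50 µL received 100 nL stock; 0% = vehicle wells and 100% = reference inhibitor wells; whole bacteria with a GFP reporter of the hypoxia response; strong numbers were not always called active; many hits fall short of the cut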
Bead autofluor – compound fluorescence in toxin protease inhibitor counterscreen | compound autofluorescence counterscreen, microsphere flow cytometry; active compounds read high | hit rate 3.1% among 360,000 | AID 624483 | fluorescence intensity (test concentration not listed);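 active means at least 3 SD above the mean of all compounds, about 16000 in these data; inconclusive means too few beads counted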;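 further: 100 nL of 1 mM stock went into each well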
Sa ugtP lethal – growth inhibition of ugtP-null S. aureus, primary screen, RN4220 ugtP deletion, OD600 | 16 h; some inactives read as strong as hits | growth inhibition, % (no concentration beside the values) | hit rate 0.54% among 330,000;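 active means z-score under -3 and OD600 up to 0.15 on both plates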;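 further: plate controls were untreated wells for no effect and antibiotic for full effect; wells of about 80 µL received 100 nL stock; the first replicate is given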
BJeLR viability – MLPCN primary cell-based screen for lethality selective to Ras in HRASV12 cells; BJeLR (HRASV12) viability, CellTiter-Glo ATP luminescence, 48 h; reference of the scale not given here; inhibition, % (test concentration not listed); hit rate 0.17% among 300,000;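 active means replicate mean above 50%; inconclusive means above 50% but judged a plate artefact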;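 further: 50 nL library stock added to about 25 µL; numbers are from one replicate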
PrP UTR inh – inhibition of PrP 5' UTR reporter expression. hit rate 0.35% among 340,000. inhibition, % (concentration not given with the values). cell-based PrP 5' UTR mRNA reporter, plate reader. AID 488862, 2010;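 active means every replicate at 50% or more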;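 further: 0 = median of the neutral control wells; tested in H4 reporter cells; numbers are from one replicate; inactives centre near -14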
Mtb hypoxia rep growth – recorded beside Mtb hypoxia rep, whose call it bears; growth inhibition, %; measured here: M. tuberculosis growth (absorbance);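 0% = vehicle and 100% = reference antibiotic; read after six days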
An asterisk follows results filed as active; ? = inconclusive; / = not tested or not shown.

SMILES | RN4220 kill | Mtb hypoxia rep | Mtb hypoxia rep growth | Bead autofluor | Sa ugtP lethal | BJeLR viability | PrP UTR inh
Cn1c2ccccc2c2cc(C(=O)OCC(=O)N3CC(=O)Nc4ccccc43)sc21 | -0.1 | / | / | 4632 | 1 | -5 | -20
COc1cc(C(=O)NNC(=O)Nc2ccc([N+](=O)[O-])cc2)cc(OC)c1OC | 4.4 | 2 | 11 | 1912 | -4 | 2 | -4
O=c1cc(CN2CCc3ccccc3C2)nc2sccn12 | 3.1 | -4 | 1 | 2116 | 4 | 3 | -6
CCN(CC)S(=O)(=O)c1cc([N+](=O)[O-])ccc1NNC(=O)Nc1ccccc1OC | -2.2 | / | / | 4120 | 17 | 11 | 5
NS(=O)(=O)c1cc(C(=O)OCC(=O)N2CCc3ccccc3C2)ccc1Cl | 11 | -1 | -1 | / | 12 | / | -10
CC1(C)CC(=O)C(CC(=O)NC(=O)NCc2ccccc2)=C(O)C1 | 6.4 | 18 | 16 | 8851 | 4 | -7 | -17
O=C(NCc1cccs1)C1CCCN1C(=O)Nc1ccccc1Cl (stereo not drawn) | 4.8 | 8 | 6 | 3262 | 9 | -20 | -13
O=C(CN1C(=O)NC2(CCCC2)C1=O)NCCN1C(=O)S/C(=C\c2ccccc2F)C1=O | 1.8 | 6 | 8 | 4838 | 5 | -1 | -18
CCN(CC(=O)NCCc1ccc(F)cc1)Cc1nc2ccccc2c(=O)[nH]1 | 4.8 | -2 | -7 | 4502 | 10 | 12 | -14
COc1ccccc1NC(=O)c1ccccc1-c1nc(-c2ccccc2OC)no1 | -2.1 | 4 | 7 | 21774* | 14 | -13 | -25
NCCCC(=O)N1c2ccccc2Sc2ccccc21 | -0.7 | 10 | 5 | 5231 | -9 | 12 | -13
Cc1cc(OCc2cc(C(=O)N(C)C3CCOCC3)no2)cc(C)c1Cl | 4.8 | 14 | 10 | 4051 | 3 | -2 | -85
COc1ccc(N2CCN(C(=O)CSc3nnnn3-c3ccc4c(c3)OCCO4)CC2)cc1 | 8.0 | 6 | 11 | 8013 | -16 | 1 | -7
O=C(NN1CCOCC1)c1ccccc1Br | 4.3 | -9 | -3 | 3770 | 9 | -8 | 3
Cc1ccc(S(=O)(=O)N(CC(=O)N2CCOCC2)c2ccc(Br)cc2)cc1 | 2.0 | -3 | -3 | 3591 | 6 | 1 | -35
CCc1ccc(-c2cc(C(F)(F)F)n3nc(C(=O)Nc4cnn(Cc5ccc(C)cc5)c4)cc3n2)s1 | 3.5 | 8 | 18 | 11288 | -15 | 15 | -1
Cc1ccccc1NC(=O)c1oc(=O)c2ccccc2c1-c1ccccc1 | 5.3 | 2 | 2 | 2586 | 1 | 9 | -12
COc1ccc(S(=O)(=O)/C(C#N)=C/Nc2ccc(NC(C)=O)cc2)cc1 | 4.0 | 5 | -1 | 3957 | 1 | 1 | -14
COc1nccc(Nc2ccccc2)c1C#N | -1.5 | / | / | 2580 | 0 | / | -23
O=C1C(=O)N(CCCn2ccnc2)C(c2ccc(Cl)cc2)/C1=C(\O)c1ccc2c(c1)OCCO2 (stereo not drawn) | -2.2 | -10 | 4 | 4120 | -4 | -2 | -12
CCCCCCC/C=N/Nc1nnc(Cc2ccccc2)c(=O)[nH]1 | / | / | / | 4260 | / | 4 | -20
COc1cccc(/C=N/n2c(COc3ccccc3)n[nH]c2=S)c1OC | / | / | / | 3109 | / | 6 | -18
CCOC(=O)N1CCN(C(=O)CCn2nc(-c3ccc(Cl)cc3)ccc2=O)CC1 | 9.1 | 5 | 4 | 3135 | 9 | -8 | -13
Cc1ccc(Nc2cc(C)nc3nc(C)nn23)c(C)c1 | -1.2 | / | / | 4347 | 2 | -12 | -7
C/C(N)=C(/C#N)C(=O)CSc1nc2ccccc2c(=O)n1Cc1ccc(F)cc1 | -7.0 | -4 | -6 | 4988 | -8 | 2 | /

Ordered by number of heavy atoms (highest first): part of the list above.
SMILES | RN4220 kill | Mtb hypoxia rep | Mtb hypoxia rep growth | Bead autofluor | Sa ugtP lethal | BJeLR viability | PrP UTR inh
Cn1c2ccccc2c2cc(C(=O)OCC(=O)N3CC(=O)Nc4ccccc43)sc21 | -0.1 | / | / | 4632 | 1 | -5 | -20
Cc1ccc(S(=O)(=O)N(CC(=O)N2CCOCC2)c2ccc(Br)cc2)cc1 | 2.0 | -3 | -3 | 3591 | 6 | 1 | -35
O=C(NCc1cccs1)C1CCCN1C(=O)Nc1ccccc1Cl (stereo not drawn) | 4.8 | 8 | 6 | 3262 | 9 | -20 | -13

Later entries
SMILES | RN4220 kill | Mtb hypoxia rep | Mtb hypoxia rep growth | Bead autofluor | Sa ugtP lethal | BJeLR viability | PrP UTR inh
NNc1ccc2c(C(F)(F)F)cc(C(F)(F)F)nc2n1 | 25 | 12 | -1 | 4799 | 15 | 14 | -23
O=C(COC(=O)c1ccccc1)NCc1cccs1 | 0.4 | 10 | 2 | 1950 | 8 | -8 | -31
CC(C)c1c(C(=O)N/N=C2\CCc3ccccc32)nnn1-c1nonc1N | / | / | / | 5249 | / | -12 | -22
CCOc1ccc(C2=Nn3c(CC)nnc3SC2)cc1 | 4.6 | 6 | 7 | 3822 | -10 | / | -7
COCCCNC(=O)/C=C/c1cccc(Cl)c1 | 0.1 | 6 | 6 | 20665* | 3 | -4 | -5
COc1ccccc1NC(=O)N1CCCC1C(=O)NCc1cccs1 (stereo not drawn) | -5.0 | -1 | -7 | 3954 | -5 | -4 | -20
COc1ccc(OC)c(NC(=O)c2cc(-c3cc(C)c(C)cc3O)n[nH]2)c1 | -4.1 | -5 | 14 | 3767 | -5 | -8 | -21
CSCCC(NC(=O)c1ccccc1)C(=O)OCC(=O)c1ccc[nH]1 (stereo not drawn) | 7.9 | 8 | 4 | 2180 | 0 | -9 | -32
C/C(C=NNC(=O)c1cc(C)oc1C)=C\c1ccccc1 | 1.5 | 10 | 17 | / | 18 | / | /
CCOc1ccc(NC(=O)CSc2nnc(C3CC3)n2C)cc1 | 7.5 | 4 | 1 | 4603 | 3 | 4 | -17
Cc1cccc(N2C(=O)CC(N3CCN(c4ccccn4)CC3)C2=O)c1 (stereo not drawn) | 0.4 | 1 | 0 | 2039 | 3 | -9 | -20
COc1ccc2[nH]c(C(=O)N(C)Cc3ccccc3)c(C)c2c1 | 5.0 | 5 | 8 | 3580 | -9 | 3 | -13
CN1CCN(C2=C(NS(=O)(=O)c3cccs3)C(=O)c3ccccc3C2=O)CC1 | 5.0 | 6 | -5 | 3991 | 2 | 4 | -36
Cc1[nH]c(-c2ccco2)nc1C(=O)O | 0.6 | 2 | 0 | 7617 | 0 | -14 | -7
Cc1sc(NC(=O)c2cc3ccccc3oc2=O)c(C(=O)OC(C)C)c1-c1ccccc1 | -1.8 | / | / | 4881 | -3 | 6 | -24
O=C(O)/C=C/C(=O)NCc1csc2ccccc12 | 3.3 | 5 | -1 | 4063 | 7 | -5 | 8
COc1ccc(CC(=O)Nc2sccc2C#N)cc1S(=O)(=O)N1CCOCC1 | 4.1 | 2 | 0 | 5612 | 4 | -6 | -19
Cc1cccc(NC(=O)CNCC(=O)Nc2cccc(C)c2C)c1C | 3.0 | 0 | 2 | 3491 | 2 | -4 | -13
CCS(=O)(=O)N1CCC(C(=O)NCc2ccc(OC)cc2)CC1 | 3.0 | -3 | 11 | 4404 | 5 | -6 | -5
CN(C)c1nc2c(N)ncnc2n1[C@H]1O[C@@H](CO)[C@H](O)[C@@H]1O | -1.5 | -1 | 3 | 4097 | 11 | 4 | -5
CCCCn1c(N)c(N(CCC(C)C)C(=O)c2ccc(C)c(S(=O)(=O)N3CCOCC3)c2)c(=O)[nH]c1=O | -3.6 | -14 | 1 | ? | -8 | 2 | -192
O=C(NNC(=O)c1cccc(S(=O)(=O)Nc2ccc(Cl)cc2)c1)c1ccc(=O)[nH]c1 | 0.3 | -6 | 1 | 4170 | -7 | / | -10
CCOCCCNC(=O)C(NC(=O)Cc1cccs1)c1ccc(OC)cc1 (stereo not drawn) | 0.7 | 1 | -3 | 3457 | 0 | -10 | 9
CC(=O)c1c(C)oc2ccc(N(C(=O)c3ccncc3)S(=O)(=O)c3ccccc3)cc12 | 2.6 | -3 | -3 | 3210 | 6 | -1 | -25
Cc1nn(C(C)C(=O)NC2CCC(C)CC2)c(=O)c2nn(-c3ccccc3)c(C)c12 (stereo not drawn) | / | / | / | 5238 | / | -1 | -41

Complete entries from above.
C/C(C=NNC(=O)c1cc(C)oc1C)=C\c1ccccc1 across the screens: RN4220 kill: 1.5; Mtb hypoxia rep: 10; Mtb hypoxia rep growth: 17; Bead autofluor: /; Sa ugtP lethal: 18; BJeLR viability: /; PrP UTR inh: /
NNc1ccc2c(C(F)(F)F)cc(C(F)(F)F)nc2n1 across the screens: RN4220 kill: 25; Mtb hypoxia rep: 12; Mtb hypoxia rep growth: -1; Bead autofluor: 4799; Sa ugtP lethal: 15; BJeLR viability: 14; PrP UTR inh: -23

Single values from above.
Sa ugtP lethal with `CCOc1ccc(NC(=O)CSc2nnc(C3CC3)n2C)cc1` is entered as 3
PrP UTR inh with `O=C(NNC(=O)c1cccc(S(=O)(=O)Nc2ccc(Cl)cc2)c1)c1ccc(=O)[nH]c1` is entered as -10
BJeLR viability with `CC(C)c1c(C(=O)N/N=C2\CCc3ccccc32)nnn1-c1nonc1N` is entered as -12
Bead autofluor with `CCS(=O)(=O)N1CCC(C(=O)NCc2ccc(OC)cc2)CC1` is entered as 4404

(further entries)
SMILES | RN4220 kill | Mtb hypoxia rep | Mtb hypoxia rep growth | Bead autofluor | Sa ugtP lethal | BJeLR viability | PrP UTR inh
C=CCNC(=O)C(=O)N/N=C/c1ccco1 | / | / | / | 2446 | / | -17 | -9
O=[N+]([O-])c1cccnc1Sc1ccc(Br)cc1 | 1.2 | 11 | 2 | 3933 | 14 | 4 | -8
COC(=O)c1ccc(-c2ccco2)n1Cc1nc(-c2ccc(OC)c(OC)c2)oc1C | -12 | 5 | 2 | 2834 | 12 | 3 | -5
CCn1cc(C(=O)NCCCOC(C)C)c(=O)c2cc(S(=O)(=O)N3CCCC3)ccc21 | 0.3 | -1 | 1 | 4467 | 3 | 13 | -7
O=C(Nc1cccc(C(F)(F)F)c1)OCCN1CCN(Cc2ccccc2)CCC1=O | 1.8 | 6 | -1 | 3870 | 3 | 11 | -26
O=C(CO)NN=Cc1c2ccccc2cc2ccccc12 | 0.5 | 7 | 7 | / | 5 | / | /
O=C1c2ccc3c4c(ccc(c24)C(=O)N1c1ccc(O)cc1)C(=O)N(c1ccc(O)cc1)C3=O | / | / | / | 3801 | / | -7 | -8
O=C(CN1CCN(C(=O)c2ccco2)CC1)Nc1cccc([N+](=O)[O-])c1 | 2.0 | -7 | 8 | 4404 | 0 | 7 | -21
Cc1onc(-c2c(F)cccc2Cl)c1C(=O)NCc1ccc2c(c1)OCO2 | 2.2 | 2 | 0 | 5874 | 11 | 0 | 3
CCC1(c2ccccc2)NC(=O)N(Cc2ccc(C(=O)OC)cc2)C1=O (stereo not drawn) | 0.8 | 1 | -3 | 2523 | 7 | 5 | -7
CCOc1ccc(NC(=O)C2C3CC/C=C\CCC32)cc1 (stereo not drawn) | 2.2 | -6 | 5 | 4757 | -7 | 1 | -43
COc1ccccc1N1CCN(C(=O)COc2ccc(C)cc2Br)CC1 | 4.6 | / | / | 4932 | 1 | 10 | -19
Cc1cc(C)cc(Oc2ccccc2/C=N\O)c1 | / | / | / | 3123 | / | 1 | -11
COc1ccc(-c2csc3ncnc(N4CCN(S(=O)(=O)c5cccc(Br)c5)CC4)c23)cc1 | 5.5 | -6 | -5 | 5791 | -5 | 3 | 0
Cc1nn(-c2ccccc2)c(Cl)c1C=NNC(=O)c1cncc(Br)c1 | 6.5 | 1 | 7 | / | 12 | / | /
CN(C)c1ccnc(Oc2ccc(Cl)cc2)c1C#N | -2.4 | 6 | 3 | 6783 | 6 | -4 | -24
CCCCN(C)C(=O)c1ccc2c(c1)N(CC)C(=O)c1ccccc1S2=O (stereo not drawn) | -1.5 | 0 | 8 | 3938 | 18 | -18 | -25
CCCCCC(=O)NC(Cc1ccc(OC)c([N+](=O)[O-])c1)C(=O)O (stereo not drawn) | 1.9 | 1 | 1 | 2632 | 8 | 6 | -16
